LASV entry inh = blocks Lassa virus binding to or entry into cells; hit rate 1.2% among 300,000; AID 540256; Potency, µM (titrated, usually from 37.9 µM), for inactives: at the top dose activity change, negative = inhibition, most hits filed as inhibitors; Lassa virus pseudotype entry inhibition, cell reporter; control for the full effect not named in the record; active means well fitted inhibition curve with a large enough effect; inconclusive means small, poorly fitted or top-dose-only effect, or effect the other way; inactive means flat fitted curve, though single readings scatter; tested in HEK293 cells; also: % is scaled to controls: 0 for no effect and ±100 for the full control effect; nearly all actives have a fitted effect of over 50% in size; luciferase read-out
RE007 growth inh = less growth of the S. pombe RE007 Vpr strain | S. pombe RE007 Vpr strain, BacTiter-Glo ATP luminescence, 24 h; control for the full effect not named in the record | hit rate 0.21% among 360,000 | Potency, µM (top dose mostly 92.2 µM), inactives show at the top dose activity change, negative = less growth | AID 651644; active = well fitted falling curve with a large enough effect; inconclusive = small, poorly fitted or top-dose-only effect; inactive = no such curve, though single readings can be large or run the other way;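 also: % is scaled to controls: 0 for no effect and ±100 for the full control effect; nearly all actives have a fitted effect of over 50% in size; the assay follows cell death caused by Vpr and the record does not say whether a fall means rescue or toxicity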
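Fission yeast RE007 carrying one integrated HIV-1 vpr copy, seeded at OD 0.01 in PMG+AL medium with 23 nL pinned compound. Grown 24 h at 30 degrees; viability read by BacTiter-Glo luminescence after 5 min.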
Cruzain inh noDet = cruzain (T. cruzi) inhibition without detergent; P25779; purified cruzain, Z-FR-AMC fluorescence, no detergent; Potency, µM, without a hit: max response, negative = inhibition, usual class: inhibitors; hit rate 2.3% among 200,000;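 also: plate controls were enzyme without inhibitor for no effect and buffer without enzyme for full effect; nearly all actives have a fitted effect of over 40% in size; top concentration of the series not given in the record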
Target sequence (P25779 123-467 limits assumed): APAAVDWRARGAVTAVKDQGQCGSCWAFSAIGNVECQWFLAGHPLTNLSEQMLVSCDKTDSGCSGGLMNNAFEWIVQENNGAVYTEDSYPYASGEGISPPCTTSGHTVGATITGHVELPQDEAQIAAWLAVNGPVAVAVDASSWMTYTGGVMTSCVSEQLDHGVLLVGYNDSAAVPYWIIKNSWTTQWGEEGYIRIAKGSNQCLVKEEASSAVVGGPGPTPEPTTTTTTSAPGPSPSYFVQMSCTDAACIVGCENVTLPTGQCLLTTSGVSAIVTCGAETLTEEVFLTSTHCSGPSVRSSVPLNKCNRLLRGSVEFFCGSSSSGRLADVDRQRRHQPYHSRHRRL
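Detergent-free condition (0.00005% Triton X-100) in acetate buffer pH 5.5 with DTT. 1.5 nM enzyme and compound were pre-mixed 15 min, then 2 uM Z-FR-AMC substrate added; reaction progress from fluorescence change between first and third reads (60 s).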
MARV entry inh = blocks Marburg virus binding to or entry into cells; Marburg virus pseudotyped entry inhibition, cell reporter; control for the full effect not named in the record; about a third of the inactives were read at about 46 µM; Potency, µM (doses to about 37.8 µM), inactives show at the top dose activity change, negative = inhibition, usual class: inhibitors; hit rate 1.8% among 300,000; active = well fitted inhibition curve with a large enough effect; inconclusive = small, poorly fitted or top-dose-only effect, or effect the other way; inactive = flat fitted curve, though single readings scatter; tested in HEK293 cells; about a fifth of its hits are not listed in these tables; also: % is scaled to controls: 0 for no effect and ±100 for the full control effect; luciferase read-out
SARS PLP yeast = inhibitors of SARS-CoV papain-like protease in yeast; S. cerevisiae expressing SARS-CoV PLpro, growth rescue; control for the full effect not named in the record; Potency, µM (top dose mostly 32.9 µM), inactives show at the top dose activity, positive = growth rescue; hit rate 0.19% among 330,000; active means well fitted rising curve with a large enough effect; inconclusive means small, poorly fitted or top-dose-only effect; inactive means no such curve, though single readings can be large or run the other way; also: 0% is about no effect; nearly all actives have a fitted effect of over 55% in size; growth read by luminescence after 48 h
2A StopGo = lowers the luciferase signal of an FMDV 2A StopGo reporter; human cells with a luciferase reporter of 2A StopGo recoding; control for the full effect not named in the record; Potency, µM (doses to about 57.9 µM), without a hit: top-dose signal change, negative = less light; hit rate 1.2% among 410,000; AID 1159524; active = well fitted falling curve with a large enough effect; inconclusive = small, poorly fitted or top-dose-only effect; inactive = no such curve, though single readings can be large or run the other way; tested in HEK293T cells; also: % is scaled to controls: 0 for no effect and ±100 for the full control effect; nearly all actives have a fitted effect of over 45% in size; luciferase light after 4 h
Cruzain Triton = blocks cruzain activity in presence of Triton detergent | hit rate 0.43% among 200,000 | P25779 | purified cruzain, Z-FR-AMC fluorescence, 0.01% Triton | Potency, µM, inactives show max response, negative = inhibition, hits mostly inhibitors | AID 1478;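 also: plate controls were neutral wells for no effect and buffer without enzyme for full effect; nearly all actives have a fitted effect of over 40% in size; top concentration of the series not given in the record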
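Read-out: AMC fluorescence (360 nm excitation, 450 nm emission), four reads over 2 min, first-to-third difference used. Conditions: cruzain 1.5 nM, Z-FR-AMC 2 uM, pH 5.5 acetate, 5 mM DTT, 0.01% Triton X-100.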
NS1 inh = blocks influenza NS1 protein function. AID 2326. S. cerevisiae slowed by influenza A NS1, growth recovery by OD600. hit rate 0.4% among 270,000. Potency, µM (highest dose often 46.1 µM), for inactives: top-dose activity, positive = more growth; active means well fitted rising curve with a large enough effect; inconclusive means small, poorly fitted or top-dose-only effect; inactive means no such curve, though single readings can be large or run the other way; also: nearly all actives have a fitted effect of over 50% in size
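S. cerevisiae expressing influenza A NS1, grown in glucose, washed, then diluted 1:100 into pH 6.0 -URA galactose medium with 23 nl compound. Growth recovery read as OD600; NS1-free strain serves as control.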
* marks the source's active call; other numbers are inactive results; ? = inconclusive; / = not tested or not shown; & = joins results of further samples; [ ] = dose if it differs, or a comment. Unless noted, calls follow the shape of the dose curve; as a rule, active = well fitted curve in the direction sought with a large enough effect; inconclusive = small, poorly fitted or top-dose-only effect, or another doubt; inactive = no such curve, though single readings can be large; an effect the other way counts as inactive or inconclusive. Potency is read from the fitted curve at half-maximal effect.

cpd | compound | LASV entry inh | RE007 growth inh | Cruzain inh noDet | MARV entry inh
1 | Cc1cc(C)c(/C=C/c2onc(C)c2S(=O)(=O)N2CCC(C(=O)Nc3ccc(Cl)cc3C)CC2)c(C)c1 | 20%[46.1 µM] | / | 1% | /
2 | CC(C)OC(=O)C(C#N)c1nc2ccccc2nc1N1CCN(Cc2ccccc2)CC1 (centres undefined) | -3% | -20% | 7% | 24%
3 | CCCCSc1nnc2[nH]c(=O)cc(N)n12 | -13% | 2% | -7% | 16%
4 | Cc1cc(C)n(CCNC(=O)c2ccc3c(c2)OCO3)n1 | -1%[46.1 µM] | 12% | / | 1%[46.1 µM]
5 | O=C(CCn1cccc1)Nc1cc(F)ccc1F | 15% | -8% | 1% | 13%
6 | N#Cc1cn(Cc2ccncc2)c(=O)[nH]c1=O | 9%[46.1 µM] | 9% | / | 3%[46.1 µM]
7 | O=C(Nc1ccccc1C(F)(F)F)N1CCC2(CC1)Oc1ccccc1C(=O)N2Cc1ccccc1F | / | / | -3% | ?
8 | CC(C)Oc1ccc(CCC(=O)NNC(=O)c2ccccc2C(=O)O)cc1 | ? | 35% | / | -6%[46.1 µM]
9 | CCc1nccn1S(=O)(=O)c1ccc2ccccc2c1 | 0% | 20% | 2% | 15%
10 | CCOC(=O)c1ccc(NC(=O)CN2C(=O)C(C)(C)c3ccccc32)cc1 | ? | / | 9% | /
11 | CC(C)c1ccc(S(=O)(=O)N2CCN(C(=O)CCNS(=O)(=O)c3ccccc3F)CC2)cc1 | 13% | -6% | / | 5%
12 | CCCCCCc1cc2cc(C(=O)NCc3ccccc3)c(=N)oc2cc1O | 2% | -6% | -17% | ?

cpd | SARS PLP yeast | 2A StopGo | Cruzain Triton | NS1 inh
1 | / | -14% | 0.1% | /
2 | 2% | ? | 6.2% | -39%
3 | 14% | 15% | -1.9% | 5%
4 | 3% | 0% | / | 5%
5 | 2% | 2% | 1.7% | -6%
6 | 0% | -4% | / | 3%
7 | / | -18% | -4.4% | /
8 | 1% | -14% | / | 12%
9 | 2% | 0% | -4.1% | 3%
10 | / | ? | -4.1% | /
11 | / | -23% | / | /
12 | 14% | -11% | -2.0% | 1%

cpd | compound | LASV entry inh | RE007 growth inh | Cruzain inh noDet | MARV entry inh
13 | CCC(C)NS(=O)(=O)c1cc2c3c(c1)CCC(=O)N3CCC2 (centres undefined) | / | -5% | / | /
14 | CCN1C(=O)c2ccccc2S(=O)c2ccc(C(=O)N3CCN(c4ccccc4OC)CC3)cc21 (centres undefined) | ? | / | ? | 5%[46.1 µM]
15 | CC1CCCCC1NS(=O)(=O)c1ccc(S(=O)(=O)N2CCCC2)cc1 (centres undefined) | -18% | 4% | -6% | -29%&1%
16 | C/C(=N\NC(=O)CC(C)C)c1ccc(N2CCCCC2)cc1 | 9% | 2% | -8% | 10%
17 | CCSc1nnc(NC(=O)c2c(C)noc2C)s1 | 10%[46.1 µM] | -7% | / | ?
18 | Cc1cc(OCC(O)CN)ccc1Cl (centres undefined) | ? | -8% | / | 17%
19 | COC(=O)c1ccccc1NC(=O)c1c(NC(=O)c2ccco2)sc2c1CCC(C(C)(C)C)C2 (centres undefined) | -12%[46.1 µM] | / | ? | 2%[46.1 µM]
20 | O=C(NCCCn1ccnc1)Nc1cccc2ccccc12 | -12% | 27% | -5% | -10%[46.1 µM]
21 | COc1ccc(NC(=O)NCc2ccc3c(c2)OCO3)cc1 | 7%[46.1 µM] | 13% | / | ?
22 | FC(F)(F)c1cc(-c2ccccc2)nc(NCc2cccnc2)n1 | ? | 11% | 17% | ?
23 | Cc1ncoc1C(=O)N1CCc2c([nH]c3ccccc23)C1C1CCCCC1 (centres undefined) | ? | -1% | / | 4%[46.1 µM]
24 | C[C@]12CCC3c4ccc(OCC(=O)O)cc4CCC3C1CCC2=O (some centres undefined) | / | 5% | 2% | /

cpd | SARS PLP yeast | 2A StopGo | Cruzain Triton | NS1 inh
13 | -2% | 5% | / | 2%
14 | / | -14% | 3.1% | /
15 | 20% | 7% | -0.4% | -3%
16 | 12% | 34%[activator] | -3.5% | 6%
17 | 2% | 6% | / | -47%
18 | -1% | -4% | / | /
19 | / | -15% | -1.9% | /
20 | -1% | 1% | -1.2% | 1%
21 | -2% | 14% | / | 1%
22 | -11% | -20% | -12% | -13%
23 | 0% | 29% | / | 1%
24 | 12% | 4% | 2.1% | -2%&-2%

cpd | compound | LASV entry inh | RE007 growth inh | Cruzain inh noDet | MARV entry inh
25 | CC(C)n1c(=S)[nH]c2cc(C(F)(F)F)ccc21 | -14%[46.1 µM] | 1% | / | -18%[46.1 µM]
26 | S=C(NN=C1CCCCCC1)Nc1ccc(Cl)cc1 | -29% | -3% | 1% | ?
27 | COC(=O)CCC(=O)OC1(C)C(=O)C=C2C=C(C3CC3)N(Cc3ccc4c(c3)OCO4)C=C2C1=O (centres undefined) | / | -10% | / | 19%&19%[14.2 µM]
28 | O=C(Nc1ccc2c(c1)C(=O)NC2=O)c1ccc(S(=O)(=O)N2CCCC2)cc1 | / | -2% | / | /
29 | COc1ccc(NC(=O)Cn2nc(SC)c(S(=O)(=O)c3ccc(C)cc3)c2N)cc1OC | 9%[46.1 µM] | / | ? | /
30 | COc1ccc(N2CC(C(=O)Nc3ncccc3C)CC2=O)cc1 (centres undefined) | 2% | 2% | 7% | -20%
31 | O=c1nc(N2CCOCC2)ccn1-c1nc(-c2ccccc2)oc1-c1ccccc1 | -9% | 17% | 6% | -6%
32 | COC(=O)CSc1nnc(C)n1-c1cccc(C#N)c1 | 30%[14.3 µM] | 17% | 8% | -7%
33 | Cc1onc(-c2ccccc2)c1C(=O)NC(CC(=O)O)c1ccc(OC(C)C)cc1 (centres undefined) | 2% | 9% | 21% | -7%
34 | C=CCn1cc(C(=O)N2CCc3ccccc3C2)c(=O)c2cc(S(=O)(=O)N(CC)CC)ccc21 | ? | -5% | ? | 2%
35 | Cc1cc2nc(/C(C#N)=C\c3ccc(-c4ccccc4C(=O)O)o3)[nH]c2cc1C | -1%[46.1 µM] | -19% | / | -9%[46.1 µM]
36 | O=C(Nc1ccc(O)cc1)c1cc2ccccc2c(=O)s1 | -2% | 6% | / | ?

cpd | SARS PLP yeast | 2A StopGo | Cruzain Triton | NS1 inh
25 | 0% | -7% | / | 7%
26 | -2% | / | -14% | 8%
27 | 1% | -10% | / | 1%
28 | -1% | 0% | / | 3%
29 | / | 10% | -2.7% | /
30 | / | -2% | -1.9% | -3%
31 | -6% | / | -3.2% | 2%
32 | -2% | 24% | 2.0% | -6%
33 | 0% | 4% | 4.9% | 19%
34 | 3% | 15% | -5.3% | 7%
35 | 0% | -7% | / | 19%
36 | -1% | 74%[activator] | / | 2%

cpd | compound | LASV entry inh | RE007 growth inh | Cruzain inh noDet | MARV entry inh
37 | COc1cccc(NC(=O)C2C3C=CC4(O3)C2C(=O)N(CCN2CCCCC2)C4C(=O)NC2CCCCC2C)c1 (centres undefined) | / | 5% | / | 0%[46.1 µM]
38 | CC12CCC3C(CCC4C/C(=N/O)CCC43C)C1CCC2O (centres undefined) | 16% | -7% | -3% | 14%
39 | CSc1nc(C)cc(OCC#N)n1 | 4% | 48% | 8% | 8%
40 | Cc1cccc(C)c1-n1c(C)nn(-c2ncc(C(F)(F)F)cc2Cl)c1=O | 1% | 0% | / | 0%[46.1 µM]
41 | O=C(CN1CCOc2ccccc21)NCc1ccc(F)cc1 | 10% | 2% | 6% | 9%
42 | CCCC(CCC)C(=O)Oc1cc(C)[nH]c(=O)c1[N+](=O)[O-] | 11%[46.1 µM] | 2% | / | 1%[46.1 µM]
43 | Cc1ccc(C)c(NC(=O)CCCn2c(C)c3cnn(-c4ccccc4)c(=O)c3c2C)c1 | 12%[46.1 µM] | / | 23% | -23%[46.1 µM]
44 | CN(C)c1ncnc2c1ccn2C1OC(CO)C(O)C1O (centres undefined) | 3.5µM* | -15% | / | 2.2µM*
45 | C=CCC(C(=O)c1ccccc1)[N+](C)(C)CC=C (centres undefined) | 3% | -14% | / | 1%
46 | Cc1ccc(NC(=O)CN(C)C(=O)CCCN2C(=O)c3ccccc3C2=O)cc1 | -2% | -1% | -9% | -2%
47 | CCCc1cc(=O)oc2cc(C)cc(OC(C)C(=O)NCc3ccncc3)c12 (centres undefined) | / | -4% | / | /
48 | O=C(Nc1ccccc1Cl)N1CCSc2ccccc21 | 2%[46.1 µM] | 2% | -9% | /
49 | Cc1ccccc1Cn1c(=O)n(CCCCCC(=O)NCc2ccc3c(c2)OCO3)c(=O)c2sccc21 | -2%[46.1 µM] | / | 16% | 27%[46.1 µM]

cpd | SARS PLP yeast | 2A StopGo | Cruzain Triton | NS1 inh
37 | 2% | 9% | / | 0%
38 | -17% | 0% | -3.3% | -1%
39 | 5% | -2% | 7.8% | -2%
40 | -1% | -6% | / | 0%
41 | 5% | -5% | 1.5% | 4%
42 | 1% | -15% | / | /
43 | / | ? | -6.5% | /
44 | / | -25% | / | /
45 | 1% | 38%[activator] | / | 3%
46 | 6% | 0% | 4.6% | 5%
47 | 3% | 1% | / | -11%
48 | 0% | -12%&-4% | 0.2% | -1%
49 | / | -17% | -1.3% | /
